Source: PubChem
HIV Env fusion: inhibitors of HIV Env-mediated cell fusion | HeLa-JRFL Env/CEM21 cell fusion, luciferase | inhibition, % at 12.3 µM | 360,000 compounds, 1.1% hits;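 active = mean replicate inhibition score of at least 50 and every replicate individually at or above 50; inconclusive = only one of the two criteria met; inactive = mean below 50 and not all replicates reaching 50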;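 also: 0% = plate neutral controls and 100% = maraviroc near 300 nM; one replicate is shown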
eIF4H FP inh: inhibitors of RNA binding by human eIF4H. Q15056. eIF4H fluorescence polarization binding assay. inhibition, % at 35 µM. 290,000 compounds, 0.94% hits. AID 2012;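 active = 50% or more with normal probe brightness, or confirmed in later tests; inconclusive = above 50% with abnormal brightness, or retests that disagree; inactive = below 50% or failed in later tests; about a fifth of its hits are not listed in these tables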;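 also: calls also rest on retests at 20 µM and on dose response follow-up; 0% = protein and probe with vehicle and 100% = probe without protein; strong numbers were not always called active; many hits fall short of the cut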
MT1-MMP act inh: inhibitors of human MT1-MMP activation; 360,000 compounds, 0.061% hits; P50281; HT1080 RFP-PRO-GFP cells, GFP/RFP ratio fluorescence, overnight; percent of plate control window, DMSO zero; GFP/RFP ratio change, % at 20 µM; AID 651647;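 active = GFP/RFP ratio change of at least 30% with cell ATP level not reduced by more than half and red fluorescence within 50% of control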; also: strong numbers were not always called active
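Material: RFP-PRO-GFP reporter HT1080 cells. Dosing: single-point 20 µM compound, 1% DMSO. Controls: DMSO and RFP-L50D-GFP cell wells. Timing: cells overnight before dosing, compound overnight, 37 °C, 5% CO2. Measure: GFP/RFP fluorescence ratio.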
Yeast UUG start: yeast start codon fidelity modulation; activity score, % at 18.7 µM; 350,000 compounds, 0.13% hits; S. cerevisiae UUG-firefly luciferase reporter, luminescence/redox ratio;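 active = replicate mean at a twofold rise or more, about +100% in these data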;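 also: firefly luciferase made from a UUG start codon reports start codon fidelity; reporter light over untreated wells divided by growth signal over untreated wells; some hits fall short of that in this replicate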
Rce1 inhib: inhibitors of yeast Ras-converting enzyme; Q03530; yeast membranes, quenched prenylated peptide cleavage fluorescence; calls only; 290,000 compounds, 0.27% hits;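 active = fall in fluorescence gain of 50% or more versus controls, with final raw signal at or below 3038400; inconclusive = same 50% fall but final raw signal above 3038400; inactive = fall in fluorescence gain under 50%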;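 also: plate controls were neutral control wells for no effect and wells lacking membranes for full effect; tested at 10 µM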
Target sequence (Q03530 whole entry, looked up): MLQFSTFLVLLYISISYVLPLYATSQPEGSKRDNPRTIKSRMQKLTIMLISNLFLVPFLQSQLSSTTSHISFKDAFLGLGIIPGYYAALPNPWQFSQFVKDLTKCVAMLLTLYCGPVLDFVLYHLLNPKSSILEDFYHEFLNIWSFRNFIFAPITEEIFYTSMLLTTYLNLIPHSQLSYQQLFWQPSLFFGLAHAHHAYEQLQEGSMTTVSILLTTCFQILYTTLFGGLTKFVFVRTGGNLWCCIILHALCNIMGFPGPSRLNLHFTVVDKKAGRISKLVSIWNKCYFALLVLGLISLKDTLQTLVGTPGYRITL
CSC inhib: blocks cancer stem cells; cancer stem cell-like cells viability, luminescence; inhibition, % at 7.5 µM; 300,000 compounds, 1.1% hits; AID 2717;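 active = mean at 75% or more and at least half the replicates too; inconclusive = mean and replicates disagree; tested in HMLE shEcad cells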;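 also: 0% = median of negative and 100% = median of positive control wells; the first replicate is given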
PABP FP inh: PABP-poly(A) binding inhibition | P11940 | PABP-poly(A) RNA binding, fluorescence polarization | inhibition, % at 35 µM | 290,000 compounds, 1% hits;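 active = 50% or more with normal probe brightness, or confirmed in later tests; inconclusive = above 50% with abnormal brightness, or retests that disagree; inactive = below 50% or failed in later tests; about a fifth of its hits are not listed in these tables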;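 also: calls also rest on retests at 20 µM and on dose response follow-up; controls were probe without protein and protein plus probe with vehicle; some compounds called inactive have numbers as strong as hits; many hits fall short of the cut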
eIF4H FP inh retest: recorded beside eIF4H FP inh, whose call it bears; inhibition, %; compound at 20 µM; confirmation average;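 mean of two retest wells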
PABP FP inh retest: recorded beside PABP FP inh, whose call it bears; inhibition, %; compound at 20 µM; confirmation repeats;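 mean of two retest wells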
MT1-MMP act inh RFP: also measured in MT1-MMP act inh; calls as there; RFP signal change, %; measured here: RFP expression control read;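 0 = vehicle wells; hits needed this value within 50% of zero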
Numbers without * were called inactive; i = inactive; ? = inconclusive; . = no result given.

SMILES | HIV Env fusion | eIF4H FP inh | MT1-MMP act inh | MT1-MMP act inh RFP | Yeast UUG start | Rce1 inhib | CSC inhib | PABP FP inh | others
CNC(=S)/N=C/NOCc1c(Cl)cccc1Cl | 9 | -4 | 1 | 1 | . | i | -3 | -6
O=C(/C=C/c1cccc([N+](=O)[O-])c1)OC1CCCCC1=O (stereo unspecified) | -3 | 15 | 1 | 3 | . | . | 11 | 3
Cc1noc(C(=O)NCC2CCCO2)c1Cl (stereo unspecified) | 3 | -5 | 4 | 9 | -8 | i | -9 | 7
CCn1cc(C(=O)N2CCc3ccccc32)c(=O)c2cc(S(=O)(=O)N3CCCC3)ccc21 | . | 5 | -2 | 3 | . | i | 2 | -7
Cc1ccc(S(=O)(=O)N(CC(=O)N2CCC(C)CC2)Cc2ccccc2F)cc1 | 33 | 4 | -6 | -6 | -5 | i | -5 | -2
CCNC1CCC(Nc2ccnc3cc(Cl)ccc23)CC1 (stereo unspecified) | 74* | . | -5 | 0 | -6 | . | . | .
CN(CCC1CCOCC1)Cc1cn[nH]c1-c1ccc(-c2ccccc2)cc1 | 13 | -17 | -3 | -4 | -10 | i | 3 | -2
COc1ccc(NC(=O)C(F)(F)F)cc1OC | . | 8 | 1 | 5 | -35 | i | 7 | -9
O=c1c2c3c(sc2nc(NCCO)n1CCc1ccccc1)CCCCC3 | -155 | -2 | -7 | -11 | -10 | i | . | -6
COC(=O)c1cc(C#N)c(Oc2ccccc2OC)nc1C | . | 1 | 4 | 1 | . | i | 12 | -2
CCOc1ccc(NC(=O)COC(=O)CCS(=O)(=O)c2ccc(C)cc2)cc1 | 14 | 4 | -1 | 5 | . | i | . | 1
O=C(OCc1c(F)cccc1Cl)c1cnc(Cl)c(Cl)c1 | -12 | 0 | -1 | 1 | -18 | i | -3 | -4
Cc1ccc(N2C(=O)CCC2=O)c(C)c1 | -6 | . | -2 | 2 | . | i | 1 | .
Cc1ccc(C(=O)N(Cc2nnc(-c3ccccc3Cl)o2)C2CC2)o1 | -44 | . | -2 | 1 | -5 | . | . | .
COc1ccc(C(C[N+](=O)[O-])C2(c3ccc(OC)c(OC)c3)C(=O)c3ccccc3C2=O)cc1 (stereo unspecified) | . | 3 | 10 | 3 | -21 | i | 89* | -1
CCCNC(=O)Cc1c(O)c2ccccc2[nH]c1=O | . | 0 | 5 | 1 | . | i | -8 | -7
CC(C)c1ccc(Nc2nnc(SCC(=O)c3nnc(-c4ccccc4)o3)s2)cc1 | -61 | 15 | -19 | -4 | . | . | 9 | 9
CCCCCC1CCC(C(=O)O)CC1 (stereo unspecified) | -9 | -1 | 3 | 2 | -17 | i | 8 | 5
CCOc1ccc(CCNC(=O)CCc2nc3ccccc3[nH]2)cc1OCC | -18 | 6 | -3 | 3 | . | i | -7 | 5
CC(C(=O)Nc1ccccc1)N1CCN(c2ccccn2)CC1 (stereo unspecified) | 6 | -9 | 3 | 3 | -4 | i | -20 | 5
Cc1ccc(NCN2C(=O)C3C4C=CC(C4)C3C2=O)cc1 (stereo unspecified) | . | -12 | 0 | 7 | -6 | i | -8 | -1
CCCOc1ccc(CN(C)c2ncnc(N)n2)cc1 | 0 | -2 | 4 | -7 | -9 | i | 1 | -9
CCC(CC)C(=O)OCC(=O)Nc1ccc(S(=O)(=O)N2CCOCC2)cc1OC | 15 | -2 | -3 | 2 | -6 | i | -5 | -3
CC1=NNC(=O)C1CC(=O)N/N=C/c1ccncc1 (stereo unspecified) | 2 | -3 | 2 | 5 | . | i | . | -3
CCCCC[C@@H]1C=C(C(=O)O)[C@H](c2ccc(F)cc2)N1S(=O)(=O)c1ccc(C)cc1 | 10 | . | 5 | 1 | -12 | . | . | .

Brought forward from above: 3 entries; new compounds follow.
SMILES | HIV Env fusion | eIF4H FP inh | MT1-MMP act inh | MT1-MMP act inh RFP | Yeast UUG start | Rce1 inhib | CSC inhib | PABP FP inh | others
CCC(CC)C(=O)OCC(=O)Nc1ccc(S(=O)(=O)N2CCOCC2)cc1OC | 15 | -2 | -3 | 2 | -6 | i | -5 | -3
CC1=NNC(=O)C1CC(=O)N/N=C/c1ccncc1 (stereo unspecified) | 2 | -3 | 2 | 5 | . | i | . | -3
CCCCC[C@@H]1C=C(C(=O)O)[C@H](c2ccc(F)cc2)N1S(=O)(=O)c1ccc(C)cc1 | 10 | . | 5 | 1 | -12 | . | . | .
CC(=O)c1nn(-c2ccc(Br)cc2)cc1C(=O)c1ccccc1 | -116 | -3 | -1 | 0 | . | i | -1 | 18
COc1ccc(/C=C/C(=O)Nc2cc(C)nn2-c2nc3ccccc3[nH]2)cc1 | . | 9 | -1 | -2 | . | i | 14 | 0
Cc1ccc(-n2ncc3c(=O)[nH]c(SCC(=O)N4CCOCC4)nc32)cc1 | 6 | -4 | 6 | 1 | -3 | i | -15 | 2
CCC1CN(C(=O)N2CCC(C(=O)NCCc3ccc(OC)cc3OC)CC2)c2ccccc2O1 (stereo unspecified) | 10 | -8 | 2 | -3 | -20 | i | -9 | -5
O=[N+]([O-])c1ccc(COc2ccccc2CN2CCCCC2)cc1 | 21 | . | 0 | 1 | -8 | . | . | .
O=C(Nc1ccccc1)Nc1ccccc1-n1ccnc1 | -1 | -14 | 6 | 4 | . | i | -19 | -5
COC(=O)/C=C1\OC(c2ccccc2)=CC1=O | . | -3 | . | . | . | i | -5 | -6
CC1(C)C([N+](=O)[O-])C(c2ccc(O)cc2)NC(c2ccc(O)cc2)C1[N+](=O)[O-] (stereo unspecified) | -48 | -2 | -7 | -2 | -2 | i | -6 | -17
O=C(Cn1cncn1)N/N=C/c1c2ccccc2cc2ccccc12 | . | -3 | -5 | -2 | -14 | i | -12 | 0
CCN1C(=NCCc2cccs2)N[C@@H](c2cccs2)C(C(=O)OC)=C1C | . | 0 | -4 | -1 | -6 | i | -2 | 56* | eIF4H FP inh retest=-2;PABP FP inh retest=96*
COc1ccccc1N1CCN(C(=O)CN(c2ccc(C)c(C)c2)S(C)(=O)=O)CC1 | 33 | -9 | 2 | -1 | 4 | i | -6 | 0
O=C(Nc1nnc(S(=O)(=O)N2CCOCC2)s1)c1ccc(F)cc1 | 7 | -2 | 1 | 1 | -9 | i | -13 | -4
Cc1ccnc(NC(=O)CNC(=O)c2ccco2)c1 | . | . | -1 | 2 | -2 | i | -6 | .
CN1CC(=O)Nc2ccc(F)cc2C1=O | -51 | -5 | -3 | -5 | -11 | i | 0 | 14
O=C(CC1SCCNC1=O)Nc1ccc(F)c(Cl)c1 (stereo unspecified) | -8 | -1 | 5 | 3 | -12 | i | 4 | -3
O=C(CN1CCCC1)Nc1ccc(S(=O)(=O)N2CCCCC2)cc1 | 13 | 2 | 5 | 5 | -6 | i | . | -7
CNC(=S)/N=C/NOCc1ccc(Cl)cc1Cl | 16 | 4 | -19 | -20 | . | i | -2 | 0
Cc1nn2c(=O)cc(COC(=O)c3ccc(NC(=O)C(C)(C)C)cc3)nc2s1 | -1 | -5 | -2 | -21 | -17 | i | -7 | -2
O=C(CCSc1ccc(F)cc1)Nc1ccc(-n2cnnn2)cc1 | -229 | -11 | -4 | -5 | -5 | i | -12 | -1
O=S(=O)(NC1C2CC3CC(C2)CC1C3)c1ccccc1 (stereo unspecified) | 14 | . | 4 | 0 | 8 | . | . | .
NC(=O)NC(=O)COC(=O)CN1C(=O)C2CCCCC2C1=O (stereo unspecified) | . | 21 | 8 | 5 | -5 | i | -12 | -2
CCc1ccccc1NC(=O)CCNS(=O)(=O)c1ccc2c(c1)CCC(=O)N2 | -4 | -4 | 0 | -1 | -12 | i | -16 | 10
O=C(CCc1ccccc1)C(=O)N1CCCC(C(=O)c2cccc(Cl)c2)C1 (stereo unspecified) | 22 | -3 | 0 | 1 | -14 | i | -7 | 8
O=C(CNc1cc(S(=O)(=O)N2CCOCC2)ccc1N1CCCC1)Nc1ccc(Cl)cc1F | 7 | . | -3 | -1 | -12 | . | . | .
COC(=O)c1c[nH]n2c(=O)cc(CCl)nc12 | . | 19 | -4 | 1 | -20 | i | -6 | -14

(continued)
SMILES | HIV Env fusion | eIF4H FP inh | MT1-MMP act inh | MT1-MMP act inh RFP | Yeast UUG start | Rce1 inhib | CSC inhib | PABP FP inh | others
Cc1ccc(NC2c3ncccc3C(=O)N2C2CCCCC2)cc1 (stereo unspecified) | -18 | -3 | 8 | -2 | . | i | -15 | 7
COc1cc(C=C2NC(=O)NC2=O)ccc1O | -14 | . | -1 | -6 | 10 | . | . | .
CC1(C)CC(=O)C2=C(C1)OC(/N=C/N1CCOCC1)=C(C#N)C2c1ccccc1 (stereo unspecified) | . | -7 | 1 | 1 | 6 | i | -15 | -2
Cc1cc2oc(=O)cc(-c3ccccc3)c2c(C)c1-c1ccc(CO)cc1 | -73 | . | -4 | -7 | -19 | . | . | .
CC(Oc1cccc(Br)c1)C(=O)N1CCCN(C)CC1 (stereo unspecified) | -12 | -4 | -4 | -1 | -15 | i | 1 | 3
COc1ccc2c(C)cc(C)nc2n1 | -3 | 6 | -1 | 1 | -11 | i | -8 | 14
CCOc1ccccc1OCC(=O)Nc1ccc(N2CCOCC2)cc1N1CCOCC1 | -5 | . | -3 | -4 | 0 | . | . | .
CNc1c(NC(=O)c2ccc3c(c2)OCO3)c(=O)oc2ccccc12 | -1 | 0 | 3 | 2 | -14 | i | 13 | 3
O=S(=O)(Nc1ccc(N2CCOCC2)cc1)c1ccc(F)cc1F | -1 | -14 | 1 | 4 | . | i | -6 | -1
CCN(CC(=O)NCc1ccc(Cl)cc1)C(=O)COc1ccc(C)cc1C | 28 | 4 | 1 | 0 | 2 | i | 3 | 20
Cc1ccc(-c2c3c(=O)n(C)c(=O)n(C)c3cn2-c2ccccc2O)cc1 | -46 | 9 | 3 | 10 | 2 | i | -7 | 6
COc1ccc2ccccc2c1/C=N/NC(=O)c1cc(C)[nH]n1 | 1 | -9 | -2 | 0 | -6 | i | 2 | -2
COC(=O)c1cccc(OC(N)=O)c1 | . | -5 | . | . | . | i | -9 | -9
CCC1CCCCN1C(=O)CCn1ccnc1 (stereo unspecified) | -8 | -9 | 1 | 5 | . | i | -14 | -5
CCc1nc(=O)c(-c2ccccc2)c(C)n1-c1ccccc1 | -30 | -13 | 1 | 2 | 1 | i | . | 5
CCOC(=O)Cc1csc(NC(NC(=O)OCC)(C(F)(F)F)C(F)(F)F)n1 | . | -5 | 7 | 7 | -5 | i | -7 | 2
COc1ccc(Nc2cc(Cl)nc(N)n2)cc1OC | -8 | 11 | -2 | -1 | . | i | . | -2
CNC(=O)C[C@H]1C(=O)N(c2ccccc2)C[C@@H]1CSC | 36 | . | 1 | -1 | -9 | . | . | .
O=C(O)c1ccc([N+](=O)[O-])c2c1C(=O)c1ccccc1C2=O | -1 | . | 6 | 7 | . | i | -9 | .
CC(=O)Nc1cc(C(=O)c2ccccc2)ccc1N1CCOCC1 | -71 | 14 | -1 | -2 | -11 | i | . | 6
CC[C@H](C)[C@H]1CNC(=S)N1CC1CCN(CC2CCC(C)CC2)CC1 (stereo partly specified) | ? | . | 4 | 5 | -14 | . | . | .
CC1CCN(S(=O)(=O)c2ccc(NC(=O)Cc3ccccc3)cc2)CC1 | . | 11 | -3 | -9 | -16 | i | 25 | -1
COc1ccc(C2/C=C\CN(C(=O)OCC3c4ccccc4-c4ccccc43)CC(=O)N2Cc2cccc(F)c2)cc1 (stereo unspecified) | -87 | . | -4 | -5 | -8 | . | . | .
COc1ccc(CCNC(=O)Cn2cnc3c2c(=O)n(C)c(=O)n3C)cc1OC | 36 | 1 | -1 | -3 | -2 | i | -14 | 0
